CtBP-E1A inh – CtBP/E1A binding inhibition | activity change, % (no concentration beside the values) | 340,000 tested, 0.49% active | AlphaScreen GST-E1A/His-CtBP binding, 1536-well; stronger effect = lower value; control for the full effect not named in the record; in the data active means activity change below about -65%; inconclusive means about -30% to -65%; inactive means above about -30%; also: % is scaled to controls: 0 for no effect and ±100 for the full control effect; compound concentration not given in the record
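Steps: dispense buffer (Tris pH 8.0, NaCl 300 mM, TCEP 1 mM, BSA, Tween 20); add 5X protein mix (GST-E1A, His-CtBP, 125 nM each); pin 23 nL compound; 2 h at 37 °C, dark; add 5X beads (50 ug/mL); 1 h; read.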
TRPML1 blocker – blocks the human TRPML1 channel. TRPML1-inducible cells, Ca2+ dye fluorescence, FDSS; stronger effect = lower value; inhibition of EC80 agonist-evoked calcium signal. Q9GZU1. 390,000 tested, 0.02% active. AID 624415. activity change, negative = inhibition, % (no concentration beside the values); in the data active means activity change below about -50%; inconclusive means about -30% to -50%; inactive means above about -30%;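 also: stimulus is agonist 54-4 at its EC80 concentration; % is scaled to controls: 0 for no effect and ±100 for the full control effect; compound concentration not given in the record; the text of the record puts the active cut at -80%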
Target sequence (Q9GZU1 whole entry, looked up): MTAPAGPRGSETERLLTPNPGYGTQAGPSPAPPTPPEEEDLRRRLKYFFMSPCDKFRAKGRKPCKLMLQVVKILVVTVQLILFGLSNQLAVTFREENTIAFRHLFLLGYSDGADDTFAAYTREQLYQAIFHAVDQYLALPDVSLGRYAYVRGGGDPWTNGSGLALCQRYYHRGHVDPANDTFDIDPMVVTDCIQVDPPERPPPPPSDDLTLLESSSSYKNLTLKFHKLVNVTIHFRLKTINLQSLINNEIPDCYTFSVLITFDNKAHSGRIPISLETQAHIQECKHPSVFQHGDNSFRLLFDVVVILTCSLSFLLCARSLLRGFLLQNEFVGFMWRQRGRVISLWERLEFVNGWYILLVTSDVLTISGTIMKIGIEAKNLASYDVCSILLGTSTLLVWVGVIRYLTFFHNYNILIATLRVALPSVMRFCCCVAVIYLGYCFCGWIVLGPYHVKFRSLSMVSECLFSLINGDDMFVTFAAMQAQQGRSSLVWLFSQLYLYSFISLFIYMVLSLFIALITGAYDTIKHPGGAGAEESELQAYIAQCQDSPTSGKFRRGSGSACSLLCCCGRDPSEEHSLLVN
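TRPML1-DL cells, Tet-induced overnight (~16 h, 37 °C) at 1,500 cells/well, were loaded with Ca8 no-wash dye plus quencher for 45-90 min at room temperature. Compounds were pinned during FDSS kinetic reading; agonist 54-4 at EC80 (4 uM final) then added.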
TRPML1 ag – activates the human TRPML1 channel. activation, % (test concentration not listed). 410,000 tested, 0.12% active. AID 624414. TRPML1-expressing cells, Ca2+ dye fluorescence, FDSS; host cell line not named in the record; reference of the full effect not given here; in the data active = activation above about 50%; inconclusive = about 30% to 50%; inactive = below about 30%; also: 0% is about no effect; the text of the record puts the active cut at 80%
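Kinetic FDSS Ca2+ read in Tet-induced TRPML1-DL cells (ABD Ca8 dye plus quencher, 45-90 min RT loading): baseline, then compound, then 110 s agonist window; EC80 agonist 54-4 at 4uM final added afterwards for a 110 s antagonist window.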
Six1-Eya2 inh – Six1/Eya2 interaction inhibition; AlphaScreen GST-Six1/His-Eya2 binding, biochemical; stronger effect = lower value; control for the full effect not named in the record; activity change, % (no concentration beside the values); 360,000 tested, 0.56% active; in the data active = activity change below about -65%; inconclusive = about -30% to -65%; inactive = above about -30%; also: % is scaled to controls: 0 for no effect and ±100 for the full control effect; compound concentration not given in the record
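Six1/Eya2 binding was read as AlphaScreen signal after compounds were pinned into GST-Six1 plus His-tagged Eya2 (5X stock 250/500 nM) in pH 8.0 Tris/NaCl/TCEP buffer, beads added, then incubated 1 h, 37 C, dark.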
PINK1 expr mod – modulators of PINK1 expression; Potency, µM (top dose mostly 76.6 µM), inactives show at the top dose activation (PINK1 increase), most hits filed as activators; PINK1 immunofluorescence, high-content cytometry, 24 h; 410,000 tested, 0.2% active; active = well fitted activation curve with a large enough effect; inconclusive = small, poorly fitted or top-dose-only effect; inactive = flat fitted curve, though single readings scatter; cell line not stated here;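 also: potency is read from the fitted curve at half-maximal effect; % of control where 0% means no effect; nearly all actives have a fitted effect of over 65% in size; a mitochondrial uncoupler was the plate control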
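PINK1 protein, normally rapidly degraded, was detected by immunofluorescence after 24 hour compound treatment of a stable cell line. Titration data (5 concentrations) came from laser-scanning cytometry, with CCCP-treated wells as controls.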
D2 agonist – human D2 receptor agonism in beta-arrestin assay | P14416 | DiscoveRx PathHunter D2 beta-arrestin, luminescence, 90 min; 100% = 57 uM dopamine signal | activation, % (test concentration not listed) | 360,000 tested, 0.084% active | AID 624465; in the data active = activation above about 40%; inconclusive = about 15% to 40%; inactive = below about 15%; also: compound concentration not given in the record; the text of the record calls up to 30% inactive
Target sequence (P14416 whole entry, looked up): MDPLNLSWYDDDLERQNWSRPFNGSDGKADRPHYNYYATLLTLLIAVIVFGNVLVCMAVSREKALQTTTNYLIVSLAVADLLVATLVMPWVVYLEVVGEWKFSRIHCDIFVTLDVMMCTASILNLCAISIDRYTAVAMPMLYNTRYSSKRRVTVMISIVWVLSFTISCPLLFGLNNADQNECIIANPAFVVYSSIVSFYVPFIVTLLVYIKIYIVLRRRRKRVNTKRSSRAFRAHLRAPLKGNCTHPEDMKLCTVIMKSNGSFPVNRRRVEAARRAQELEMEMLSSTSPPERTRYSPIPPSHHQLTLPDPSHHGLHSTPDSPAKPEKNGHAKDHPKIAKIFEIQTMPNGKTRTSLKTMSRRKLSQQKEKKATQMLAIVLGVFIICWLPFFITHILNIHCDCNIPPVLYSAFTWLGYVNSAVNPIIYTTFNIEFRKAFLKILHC
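Agonist mode: compounds alone added to overnight-plated D2 PathHunter cells for 90 min at 37 C, with 57 uM final dopamine (EC100) defining full response. Beta-arrestin recruitment detected by chemiluminescent reagent, read after 1 h at ambient temperature.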
The depositor's hits bear a star; ? = inconclusive; · = no result given; [ ] = dose if it differs, or a comment.

SMILES | CtBP-E1A inh | TRPML1 blocker | TRPML1 ag | Six1-Eya2 inh | PINK1 expr mod | D2 agonist
Cc1ccccc1C(=O)N(Cc1ccc(N(C)C)cc1)CC1CCCO1 (centres undefined) | · | -3.6 | -1.0 | · | 0.3% | ·
Cc1cc(Br)ccc1SCC(=O)OCC(=O)NCc1ccco1 | 2.9 | 6.9 | 2.1 | -17.6 | 2.1% | -1.5
Cc1cc(Nc2cccc(O)c2)c2cccc(Br)c2n1 | · | 4.9 | 2.7 | · | 6.6% | ·
O=C(COc1ccccc1-c1ccccc1)NCCN1C(=O)S/C(=C\c2cccnc2)C1=O | 2.2 | -0.9 | 0.1 | 5.5 | 7.9% | 0.1
CC(C(=O)Nc1cccnc1)C1Sc2ccccc2NC1=O (centres undefined) | 0.8 | 3.8 | -0.6 | 1.6 | -0.9% | -2.5
Cc1cccc(S(=O)(=O)NCCNS(=O)(=O)c2cccc(C)c2)c1 | 3.6 | 27.7 | -0.1 | -4.9 | -0.9% | -0.5
CCN(CC)c1ccc(/C=N/NC(=O)c2nnn(-c3nonc3N)c2-c2ccc(C)cc2)cc1 | · | 55.1 | 1.5 | -1.5 | -1.2% | -0.9
COc1ccc(CCN2C(=O)CCC3=C2CCCC3=O)cc1OC | 3.3 | · | -0.3 | -2.2 | 0.9% | -4.1
O=C(NCCSCc1ccc(Cl)cc1)c1cccs1 | -2.0 | -4.9 | 2.1 | -2.7 | 0.7% | -7.4
CCOc1ccccc1NC(=O)Cn1c(-c2ccc(Cl)cc2)noc1=O | 7.5 | -16.8 | 0.3 | 20.6 | 1.0% | 6.8
CC(C)Oc1ccc(S(=O)(=O)N2CCOCC2)cc1NC(=O)C1CCC1 | -2.6 | -3.1 | -0.2 | -5.0 | -0.5% | -0.7
CCSc1nnc(NC(=O)C2CCCCC2C(=O)O)s1 (centres undefined) | 7.6 | 0.6 | 0.6 | 7.5 | 1.3% | -1.7
COc1ccc(Cl)cc1NC(=O)Cn1ccn(-c2cc(C)cc(C)c2)c(=O)c1=O | · | 22.2 | -0.6 | · | -0.4% | ·
Cc1c(NC(=S)NC(=O)c2ccco2)cccc1-c1nc2ncccc2o1 | 6.1 | -11.2 | -0.2 | 10.0 | 5.0% | 0.1
Cc1sc2ncnc(N=Nc3c(O)[nH]c4ccccc34)c2c1C | -1.1 | -6.8 | 0.6 | 0.7 | ? | 1.6
CCOc1cc(/C=C2\SC(N3CCCC(C)C3)=NC2=O)ccc1O (centres undefined) | 21.1 | -9.0 | 2.7 | 23.6 | -1.7% | 0.0
CCCCN1C(=O)C(CC(=O)NCc2ccco2)CC(C(=O)N2CCOCC2)=C1C (centres undefined) | 2.5 | 1.3 | -0.8 | -5.6 | 0.9% | -3.8
CC(C)=CC(=O)Nc1nnc(-c2cccnc2)s1 | 0.0 | -2.0 | 0.9 | 0.0 | 0.2% | -1.8
Cc1ccc(NC(=O)Cc2nnc(SCC(=O)Nc3nncs3)n2C)cc1 | 0.0 | -14.2 | 1.0 | -14.6 | 1.1% | -2.6
Cc1ccc(C(=O)NC(=S)NCC2CCCO2)cc1[N+](=O)[O-] (centres undefined) | 0.0 | -10.5 | 0.0 | -4.6 | 0.8% | -1.2

Record cards (already shown). Values in the order: CtBP-E1A inh, TRPML1 blocker, TRPML1 ag, Six1-Eya2 inh, PINK1 expr mod, D2 agonist
Listed for `CC(C)=CC(=O)Nc1nnc(-c2cccnc2)s1` : 0.0, -2.0, 0.9, 0.0, 0.2%, -1.8
Listed for `COc1ccc(Cl)cc1NC(=O)Cn1ccn(-c2cc(C)cc(C)c2)c(=O)c1=O` : ·, 22.2, -0.6, ·, -0.4%, ·

The listing continues:
SMILES | CtBP-E1A inh | TRPML1 blocker | TRPML1 ag | Six1-Eya2 inh | PINK1 expr mod | D2 agonist
COc1ccc(C(CC(=O)N2CCCC2)c2ccc(F)cc2)cc1 (centres undefined) | 3.2 | 15.5 | 2.0 | -0.5 | -1.9% | 2.9
Cc1ccc2oc(-c3ccc(Cl)c(NC(=O)c4ccc(OC(C)C)cc4)c3)nc2c1 | · | 3.9 | -0.5 | · | 0.7% | ·
Cc1ccc(Cn2cc(CN3CC(N4CCSCC4)CS3(=O)=O)nn2)cc1 (centres undefined) | 3.4 | · | -0.3 | -11.7 | -1.2% | ·
CCC1OC2(C)OC(=N)C1(C#N)C(C#N)(C#N)C2c1ccccc1 (centres undefined) | 7.1 | 12.0 | -0.8 | 6.3 | -1.0% | 1.3
COC(=O)COn1c(-n2nc(C)cc2C)nc2ccccc2c1=O | 3.2 | -0.9 | 0.1 | -0.2 | -0.5% | -3.3
CC(C)=CCN1CCN(Cc2cccn2-c2ccccn2)CC1CCO (centres undefined) | -4.3 | 3.7 | 0.8 | -9.5 | 0.7% | -6.3
CN(C(=O)COC(=O)Cc1ccccc1[N+](=O)[O-])C1CCS(=O)(=O)C1 (centres undefined) | · | 8.6 | -0.8 | -0.2 | 2.6% | -1.7
CC(=O)N1CCCc2cc(S(=O)(=O)NCc3cccc(C)c3)ccc21 | · | 13.5 | -0.3 | · | 0.5% | ·
O=C(NC1CCCCCC1)C(=S)N1CCOCC1 | -3.3 | -7.7 | 0.0 | 14.5 | -0.1% | -4.2
COC(=O)c1ccc(CN2C(=O)NC(CC(C)C)C2=O)cc1 (centres undefined) | -4.3 | 8.9 | -1.0 | 2.5 | 2.6% | -0.4
O=C(NCCS(=O)(=O)NCc1ccccc1)c1ccccc1 | 8.8 | 22.3 | 0.8 | -5.0 | 0.2% | -4.8
COc1cc(S(=O)(=O)N2CCCC2)c(C)cc1C | 2.0 | -13.7 | 2.8 | 4.5 | -1.7% | 1.9
C=CC[N+](C)(C)CCCNC(=O)/C=N/O | 0.8 | 12.9 | 0.3 | 2.2 | ? | -1.6
COc1ccc(CCC(C)N2CCC(Oc3ccc(C(=O)N4CCCC4)cc3)CC2)cc1 (centres undefined) | 2.3 | -1.8 | 0.3 | 20.7 | 0.6% | -4.8
COc1ccc(-c2coc3c(C(=O)NC(C)C)cccc23)c(C)c1 | -12.9 | 6.0 | 1.1 | -4.1 | 2.1% | 10.5
CCCOc1c(Cl)cc(C(=O)N(Cc2cccc(OC)c2)C2CCS(=O)(=O)C2)cc1Cl (centres undefined) | · | 3.0 | 0.6 | · | 0.3% | ·
CCCCN(C)CCCNC(=O)Cn1nc(CC)n2c(cc3sc(C)cc32)c1=O | · | -0.9 | 1.3 | · | 1.1% | ·
O=C(Nc1cccc(O)c1)c1noc2c1CCCCC2 | 0.8 | 4.4 | 0.9 | 0.1 | 2.4%[38.3 µM] | 0.6
O=C1Nc2ncccc2OC1CCO (centres undefined) | 2.4 | 19.8 | -0.3 | 2.6 | -0.9% | -2.1
Cc1ccc(S(=O)(=O)/N=C(/c2ccccc2)N2CCOCC2)c(C)c1 | 0.0 | -13.9 | -0.4 | 3.8 | -2.8% | 1.4

Part of the list above, as tab-separated lines:
molecule	CtBP-E1A inh	TRPML1 blocker	TRPML1 ag	Six1-Eya2 inh	PINK1 expr mod	D2 agonist
COc1ccc(-c2coc3c(C(=O)NC(C)C)cccc23)c(C)c1	-12.9	6.0	1.1	-4.1	2.1%	10.5
CCCOc1c(Cl)cc(C(=O)N(Cc2cccc(OC)c2)C2CCS(=O)(=O)C2)cc1Cl (centres undefined)	·	3.0	0.6	·	0.3%	·
Cc1ccc(S(=O)(=O)/N=C(/c2ccccc2)N2CCOCC2)c(C)c1	0.0	-13.9	-0.4	3.8	-2.8%	1.4
O=C(NCCS(=O)(=O)NCc1ccccc1)c1ccccc1	8.8	22.3	0.8	-5.0	0.2%	-4.8
COc1ccc(CCC(C)N2CCC(Oc3ccc(C(=O)N4CCCC4)cc3)CC2)cc1 (centres undefined)	2.3	-1.8	0.3	20.7	0.6%	-4.8
C=CC[N+](C)(C)CCCNC(=O)/C=N/O	0.8	12.9	0.3	2.2	?	-1.6

The list goes on.
SMILES | CtBP-E1A inh | TRPML1 blocker | TRPML1 ag | Six1-Eya2 inh | PINK1 expr mod | D2 agonist
COc1ccc(C(=O)n2c(-c3ccco3)nc3ccccc32)cc1 | -0.7 | 7.1 | -0.5 | 1.4 | 4.2% | -7.3
Cc1cc(C)c2c(N)c(C(=O)c3ccccc3Cl)sc2n1 | -10.9 | 3.6 | 1.5 | 11.0 | 6.7% | 4.0
COc1ccc2oc(=O)c(-c3csc(Nc4ccc(O)cc4)n3)cc2c1 | 8.7 | 9.3 | 2.3 | -6.0 | 7.7% | 3.0
COc1ccc(S(=O)(=O)NCCc2ccccc2)cc1 | -4.9 | 41.1 | 2.0 | -2.3 | -1.5% | -0.7
O=S(=O)(c1ccc(F)cc1)N1CCC(n2cnc3ccccc32)CC1 | -6.7 | -8.3 | -1.2 | 0.9 | 3.2% | -2.1
CCC(Sc1nc(-c2ccc(F)cc2)nc2c1Cc1c(CO)cnc(C)c1O2)C(=O)Nc1ccc(F)cc1 (centres undefined) | · | -2.9 | 0.7 | · | 0.9% | ·
CCOC(=O)N1CCN(C(=O)c2cc(S(=O)(=O)N3CCc4ccccc43)ccc2OC)CC1 | 3.3 | 17.5 | -0.6 | 3.6 | 0.9% | -4.6
Cc1ccc(S(=O)(=O)N2[C@@H](c3cccc4ccccc34)C(C(=O)O)=C[C@H]2C(C)(C)C)cc1 | 4.5 | 3.6 | 0.7 | -0.1 | -0.8% | -0.2
COc1ccc(/C=N/NC(=O)c2cc[n+]([O-])cc2)cc1 | 2.2 | 1.6 | 0.2 | 3.7 | -0.7% | 0.9
Cc1n[nH]c(C)c1SCC(=O)Nc1ccc(F)cc1 | -1.5 | 2.3 | 0.6 | 6.6 | -1.3% | 0.7
CCOC(=O)N(C)c1c(CC)nc2c(OCc3ccccc3C(=O)OC)cccn12 | -5.5 | -13.9 | -0.4 | -3.9 | 0.0% | -1.4
Cc1ccc(/C=C/C(=O)Nc2cc(S(N)(=O)=O)ccc2O)cc1 | -1.1 | -9.1 | -0.5 | -4.7 | 4.1% | -4.8
CC(C)CNC(=S)N(CCCN(C)C)Cc1cc2cc3c(cc2[nH]c1=O)OCCO3 | -0.8 | 13.5 | 0.4 | -8.1 | -0.2% | -2.6
CC(C)CN(CCNC(=O)c1cc(-c2ccc(Cl)s2)nc2ccccc12)CC(C)C | · | 11.7 | 0.2 | · | -0.6% | ·
O=C(O)CCCCCN1C(=O)/C(=C\c2ccncc2)SC1=S | 3.7 | -5.4 | -0.1 | -10.6 | 14.4% | 5.6
O=C(Nc1nnc(SCc2ccc(F)cc2)s1)C1CC(=O)N(Cc2ccccc2)C1 (centres undefined) | 0.9 | -15.0 | 1.0 | 4.0 | 5.6% | 2.9
CCOC(=O)c1c(C)noc1-c1ccc(Br)o1 | 11.7 | 21.1 | 1.9 | 7.7 | 2.1% | 1.9
CC1=C(C(=O)Nc2ccccc2C)C(c2cccs2)n2nc(SCc3cc(C)ccc3C)nc2N1 (centres undefined) | · | 31.5 | -0.5 | · | 1.8% | ·
COc1ccccc1N1C(=S)N=C(Nc2c(C)cccc2C)C12CCCC2 | -2.2 | 0.6 | 3.5 | 5.5 | 1.6% | -1.6
Cc1cc(OCC(=O)N2CCCCCC2)ccc1[N+](=O)[O-] | -5.0 | 12.2 | -0.6 | -1.2 | 1.9% | -0.7

Screening results as filed in PubChem.
